Vaccinia Venus – inhibitors of vaccinia virus (Venus reporter). Potency, µM (doses to about 36.5 µM), for inactives: at the top dose activity change, negative = inhibition, hits mostly inhibitors. 0.46% of 330,000 active. Vaccinia virus Venus reporter expression, fluorescence. AID 720580; active means well fitted inhibition curve with a large enough effect; inconclusive means small, poorly fitted or top-dose-only effect; inactive means no such curve, though single readings can be large or run the other way; tested in A549 cells; note: nearly all actives have a fitted effect of over 30% in size; inactives centre near -10
VACV mCherry inh – inhibitors of vaccinia virus infection (mCherry reporter signal) | AID 720579 | Vaccinia virus mCherry reporter infection, fluorescence; about a quarter of the inactives have no number | 0.63% of 310,000 active | Potency, µM (top dose mostly 36.5 µM), inactives show at the top dose activity change, negative = inhibition, most hits filed as inhibitors; active = well fitted inhibition curve with a large enough effect; inconclusive = small, poorly fitted or top-dose-only effect; inactive = no such curve, though single readings can be large or run the other way; tested in A549 cells; note: nearly all actives have a fitted effect of over 35% in size; inactives centre near -10
* marks the source's active call; other numbers are inactive results; i = inactive; ? = inconclusive; / = not tested or not shown; [ ] = dose if it differs, or a comment. % is set by controls: 0 for no effect and ±100 for the full control effect; potency is the fitted concentration of half-maximal effect.

compound	Vaccinia Venus	VACV mCherry inh
CCOc1cc(C(=O)N2CCCN(C)CC2)cc(OCC)c1OCC	-8.1%	-11.7%
Cc1cc(C(=O)Cn2nnc(-c3ccc(Cl)cc3)n2)c(C)n1-c1ccccc1	?	?
COc1ccccc1CC(NC(C)=O)C(=O)NC1CCN(C(=O)Nc2ccc(F)cc2)CC1 (stereo not drawn)	-12.1%	-11.2%
CCOC(=O)N1CCC(N2CCN(C3CCCC3)C(CCO)C2)CC1 (stereo not drawn)	-11.3%	-14.0%
COc1ccccc1CNC(=O)[C@H](Cc1c[nH]c2ccccc12)NC(=O)[C@@H]1Cc2ccccc2CN1	-1.8%	0.8%
CC12CC(=O)C3C(CCC4=CC(=O)CCC43C)C1CC=C2CC(=O)O (stereo not drawn)	-3.5%	i
Cc1ncoc1C(=O)Nc1cccc(Cl)c1	-2.5%	-1.2%
O=C(NCC1CCN(c2ccc(S(=O)(=O)N3CCOCC3)cc2)CC1)Nc1ccccc1	-28.8%	-24.9%
CC(C)c1ccc(OCC(=O)NCC(c2ccc(Cl)cc2)N2CCOCC2)cc1 (stereo not drawn)	-12.5%	-12.1%
Cc1c(C(=O)C(=O)NCCc2ccc(S(N)(=O)=O)cc2)c2ccccc2n1C	-20.1%	-16.6%
Cc1ccc(S(=O)(=O)NN2C(=O)c3ccccc3NC2C)cc1 (stereo not drawn)	-3.6%	i
O=S(=O)(c1cccc(C(F)(F)F)c1)N1CCN(c2nc(-c3ccccc3)nc3ccccc23)CC1	-13.9%	-9.2%
O=C(Nc1ccccn1)c1c(O)c2cccc3c2n(c1=O)CCC3	-13.5%	/
CN1CCN(CC(=O)c2cc(C(C)(C)C)c(O)c(C(C)(C)C)c2)CC1	-16.3%	?
CCC(C(=O)Nc1ccc(C(=O)OC)cc1)n1nc(-c2ccc(C)cc2)c2c(c1=O)CCCC2 (stereo not drawn)	-28.2%	-22.9%
COc1ccccc1-c1cnc(C(O)c2ccc(F)cc2C)[nH]1 (stereo not drawn)	-24.3%	8.0%
O=C(Cc1ccc(-c2ccccc2)cc1)Nc1ccccc1	-13.4%	-7.6%
O=C(CCN1C(=O)S/C(=C/c2ccccc2)C1=O)Nc1ccc(O)c(C(=O)O)c1	-15.9%	i
Cc1csc(Nc2ccc(Cl)cc2)n1	-3.6%	i
C[C@H]1Cn2cnc(C(=O)NCc3ccc(CNC(=O)OC(C)(C)C)cc3)c2C(=O)N1	-24.8%	i
Cc1cc(C)nc(N(C#N)CN2C(=O)c3ccccc3S2(=O)=O)n1	-27.4%	/
COc1cccc(C(N)c2nc(-c3cc(F)cc(F)c3)cs2)c1 (stereo not drawn)	-13.4%	i
O=C(CN1CCN(c2ccccc2)CC1)Nc1ccccc1C(F)(F)F	8.0%	/
CCc1nnc(NC(=O)c2ccc3nc(CC)c(CC)nc3c2)s1	-9.3%	i
COc1ccc(-c2nnc(SCC(=O)c3cccs3)n2-c2ccc(Cl)cc2)cc1	-19.4%	-10.8%
COc1ccc(C2(CNC(C)=O)CCCC2)cc1OC	-10.8%	/
CC(C)C[C@H]1CN=C(Nc2ccccc2)N1CC1CCC1	0.3%	-13.7%
O=C(Nc1ccc(S(=O)(=O)N(Cc2ccccc2)c2ccccc2)cc1)c1ccccc1F	-16.4%	?
COc1ccccc1CN1CCC2(CCC(CNC(=O)c3ccccc3N(C)C)O2)CC1 (stereo not drawn)	-2.1%	-15.9%
COC(=O)c1c(C)[nH]c(C(=O)/C=C/c2cccc(Cl)c2)c1C	-10.4%	-17.1%
C[C@@H]1CN([C@H](C)CO)C(=O)CCCn2cc(nn2)CO[C@H]1CN(C)C(=O)Oc1ccc2ccccc2c1	-18.9%	-0.8%
O=C(Cn1nc(Cc2cccnc2)c2ccccc2c1=O)NCc1ccc2c(c1)OCO2	-4.9%	34.1%[activator]
CCC1(CC)NC(=O)N(CC(=O)N2CCc3ccccc32)C1=O	-13.6%	-6.0%
Nc1ccc(S(=O)(=O)NC2=NCCCCC2)cc1N	-13.3%	-13.7%
Nc1nn(-c2ccccc2)nc1C(=O)OCc1ccccc1Br	2.5%	-1.7%
COc1ccc(-c2nc3cc(C)ccc3cc2CN(C(=O)c2cc(C)nn2C)C2CC2)cc1OC	-17.3%	-14.1%
CC1(C)CC(=O)C=C(Nc2ccc(Br)cn2)C1	-2.8%	-11.5%
COc1ccc(/C=C/c2cc[n+](C(=O)Cc3ccccc3)cc2)cc1	-28.9%	-26.8%
C/C(=N\NC(=S)NCc1ccccc1)c1ccc2c(c1)OCCO2	-11.1%	-10.4%
COc1ccc(O)c(C(=O)c2cc(C#N)c(=O)n(CCN3CCOCC3)c2)c1	-17.3%	/
Cc1c(/C=N/N=C2\CCC3C4CCc5cc(O)ccc5C4CCC23C)cnn1C (stereo not drawn)	-20.9%	/
CC(=O)N1N=C2C3CCN(CC3)C2C1c1cccc2ccccc12 (stereo not drawn)	5.5%	10.1%
COc1cccc(-n2c(C)nc3c(cnn3-c3ccc(C)c(C)c3)c2=O)c1	-17.2%	-14.4%
Cc1ccccc1N1CC(C(=O)Nc2ccc(S(=O)(=O)N3CCCCC3)cc2)CC1=O (stereo not drawn)	-14.7%	-18.4%
N#CCSc1nnc(-c2sc3ccccc3c2Cl)o1	?	?
CCC(C)N(C(=O)CSc1nnc2ccccn12)C1CCS(=O)(=O)C1 (stereo not drawn)	-2.1%	-18.9%
CCOc1ccc(C2=NNC(c3cccs3)=Nc3ccc(OC)cc32)cc1OCC	3.7%	-3.6%
Cc1ccccc1CN(C)CC(=O)Nc1ccccc1-c1ccccc1	-13.8%	-14.6%
O=C(CCC1COc2ccccc2O1)Nc1ncccc1O (stereo not drawn)	-21.6%	/
Cc1[nH]c(=O)[nH]c(=O)c1/C=N/NC(=O)[C@@H](NC(=O)OC(C)(C)C)C(C)C	3.2%	/
COc1cccc(N2CCN(C(=O)c3cc4c(s3)-c3c(C)cccc3OC4)CC2)c1	-14.1%	-9.2%
Nc1ncnc2c1ncn2[C@@H]1O[C@H](CNC(=O)[C@@H]2C[C@H](F)CN2)[C@@H](O)[C@H]1O	-3.3%	-3.5%
CCCc1c(-c2cccc(Cl)c2)ncn1CCc1ccccc1OC	-19.7%	-21.9%
Cc1c(-c2ccccc2)c(=O)oc2c(CN3CCOCC3)c(O)ccc12	-14.1%	-10.4%
CCOC(=O)C1(CCOC)CCN(Cc2ccc(C(=O)OC)cc2)CC1	-3.7%	-1.3%
N#CCN1C(=O)C(=O)N(Cc2cccc(C(F)(F)F)c2)C1=O	-9.6%	-19.6%

(further entries)
compound	Vaccinia Venus	VACV mCherry inh
CCOC(=O)C1=C(CSc2nc(C)cc(C)c2C#N)OC(N)=C(C#N)C1c1cccs1 (stereo not drawn)	-8.8%	i
CCC(C)COC(=O)c1ccc(C(=O)O)cc1 (stereo not drawn)	-2.2%	-11.7%
CCOc1ccc(N(Cc2cc3cc(C)ccc3[nH]c2=O)S(=O)(=O)c2ccccc2)cc1	-7.3%	-14.4%
CN(CC(=O)Nc1ccc(F)cc1)C(=O)c1ccc(OCc2ccccc2)cc1	-18.6%	-11.3%
COc1ccc(-n2c(SCC(=O)Nc3ccc(C(N)=O)cc3)nc3ccccc3c2=O)cc1OC	-6.6%	i
CCOc1ccc(Cn2c(CNS(=O)(=O)c3ccc(Cl)s3)nc3cccnc32)cc1	-11.3%	-11.5%
O=C(c1cccc([N+](=O)[O-])c1)c1cc2ccccc2o1	-8.2%	i
Cc1c(Cl)cccc1NC(=S)NC1CC1	-15.6%	-7.5%
CCC(Nc1nc(-c2ccccc2)nc2ccccc12)C(=O)O (stereo not drawn)	-5.2%	-8.1%
COC(=O)C1=C(c2cccc(OCc3ccccc3)c2)C[C@@H]2CC[C@H]1N2C(=O)NNCc1ccccc1	-17.5%	-14.5%
COc1cccc(C(=O)NNC2=C(C(=O)C(F)(F)F)CCC2)c1	-14.7%	?
CCOC(=O)C(C)n1cnc2sc(C)c(C)c2c1=O (stereo not drawn)	3.8%	-4.3%
COc1cccc(CNC(=O)CCC(=O)N2C[C@H]3C[C@H](C2)c2cccc(=O)n2C3)c1OC	-0.3%	4.0%
CCOC(=O)C(NC(C)=O)(Nc1ccc(S(=O)(=O)Nc2ncccn2)cc1)C(F)(F)F (stereo not drawn)	2.0%	-2.5%
CC(C)c1nc2sc3c(c2c(=O)o1)CCCC3	4.7%	-18.8%[1.46 µM]
COc1cccc(NC(=O)c2ccccc2F)c1	-13.4%	-5.2%
NC(=O)c1ccccc1OCCOCCOCCOc1ccccc1C(N)=O	-6.9%	-7.3%
O=C(NNC(=O)C1CC=CCC1C(=O)O)c1cccs1 (stereo not drawn)	-1.5%	-5.3%
COc1ccc(NC(=O)C2Cc3c(-c4ccc5c(c4)OCO5)ccnc3O2)cc1OC (stereo not drawn)	?	-19.5%
CCOC(=O)c1c(C)nc2c(c1-c1ccc(OC)cc1)C(=O)CC(C)(C)C2	-12.0%	-12.5%
Cc1ccccc1CN1[C@H]2CCCC[C@@H]2OCCS1(=O)=O	-21.5%	-1.0%
CSc1nc2nc3c(c(=O)n2[nH]1)CCC3	-1.7%	/
Cc1ccc(Cl)c(OCC(=O)OC(C)C(=O)NC2CC2)c1 (stereo not drawn)	-5.1%	-12.7%
Cc1c(S(=O)(=O)c2ccccn2)c(N)n(Cc2ccccc2Cl)c1C	60.6%[activator]	i

Complete entries as entered above.
CC1(C)CC(=O)C=C(Nc2ccc(Br)cn2)C1 in the list: Vaccinia Venus = -2.8%; VACV mCherry inh = -11.5%
CCOC(=O)N1CCC(N2CCN(C3CCCC3)C(CCO)C2)CC1 (stereo not drawn) in the list: Vaccinia Venus = -11.3%; VACV mCherry inh = -14.0%
Cc1csc(Nc2ccc(Cl)cc2)n1 in the list: Vaccinia Venus = -3.6%; VACV mCherry inh = i

New compounds follow.
compound	Vaccinia Venus	VACV mCherry inh
CC(C)(C)c1ccc(OCCN2CCCC2)cc1	-12.0%	-11.5%
CN(C(=O)CSc1nc2[nH]ncc2c(=O)[nH]1)c1ccccc1	-12.7%	i
COc1cccc(C(=O)/C=C/Nc2ccc(S(=O)(=O)Nc3nc(C)cc(C)n3)cc2)c1	1.4%	i
CCOC(=O)C1CCN(S(=O)(=O)c2ccc3c(c2)N(C(C)=O)CC(C)S3)CC1 (stereo not drawn)	-17.6%	i
Cc1oc2ccc(O)cc2c1C(=O)c1ccc([N+](=O)[O-])cc1	?	?
Cn1c(=O)c2[nH]c(NN=Cc3ccccc3)nc2n(C)c1=O	-4.5%	-21.5%
COc1ccc(-n2cc(CNCCc3nc(C)cc(C)n3)c(-c3ccccc3Cl)n2)cc1	-13.3%	i
CC(C)(C)[C@@H]1C=C(C(N)=O)O[C@H](OCCCCO)C1	-12.7%	-13.1%
O=C(Nc1ccccc1)C(=O)Nc1ccc2c(c1)N(C(=O)C1CC1)CCC2	-19.3%	-10.6%
Cc1ccc(C(=O)O)cc1NC(=S)NC(=O)c1ccc([N+](=O)[O-])cc1Cl	-10.9%	-15.2%
CCCC(=O)Nc1ccc(C(=O)Nc2cc(C(F)(F)F)ccc2Cl)cc1	-27.6%	-13.2%
Cc1ccc(C2CC(c3ccccc3C)n3nc(N)nc3N2)cc1 (stereo not drawn)	-4.3%	2.8%
CC1=C(C(=O)Nc2cccnc2)C(c2cccnc2)n2nc(-c3cccs3)nc2N1 (stereo not drawn)	2.3%	-13.4%
CC(C)(C)c1ccc(S(=O)(=O)NC(=O)C2(C)CCN2C(=O)c2cccc3ccccc23)cc1 (stereo not drawn)	2.8%	16.1%
O=C(NCc1ccccc1)c1ccc(CS(=O)Cc2ccc(Cl)cc2)o1 (stereo not drawn)	-16.5%	-13.2%
COc1ccc2c(c1)c(=O)c(Br)c(C)n2Cc1ccccc1	-11.6%	/

2 entries from above, as labelled records:
O=C(NCc1ccccc1)c1ccc(CS(=O)Cc2ccc(Cl)cc2)o1 (stereo not drawn)
  Vaccinia Venus = -16.5%; VACV mCherry inh = -13.2%
COc1ccc2c(c1)c(=O)c(Br)c(C)n2Cc1ccccc1
  Vaccinia Venus = -11.6%; VACV mCherry inh = /

Continued:
compound	Vaccinia Venus	VACV mCherry inh
Oc1c(C(c2cccs2)N2CCN(c3ccccc3)CC2)sc2ncnn12 (stereo not drawn)	-1.9%	-21.0%
COc1ccc(S(=O)(=O)N2CCOCC2)cc1NC(=O)CN1CCCC1	-9.6%	1.8%
O=C(COC(=O)c1cccc(S(=O)(=O)N2CCN(c3ccccc3)CC2)c1)NCC1CCCO1 (stereo not drawn)	-6.2%	9.0%
COc1cc(OC)cc(C(=O)OCC(=O)NC2CCCCCCC2)c1	-5.8%	-5.1%
CCOC(=O)C1CCN(C(=O)Nc2ccc(OC(F)(F)F)cc2)CC1	5.9%	i
CN(C)CCCNc1oc(-c2cccc(Cl)c2)nc1C#N	-18.0%	i
